ID4 binder: binders of human ID4 protein; P47928; small molecule microarray, Flag-ID4 binding, fluorescence F/B; calls only; 31,000 compounds, 1.2% hits; AID 624137;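 active = spot signal over background at p below 0.07 in all four prints; compounds were printed on slides so no solution concentration is given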;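 note: a binder raises fluorescence above local background on the spot; about 2 pmol printed per array spot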
Target sequence (P47928 whole entry, looked up): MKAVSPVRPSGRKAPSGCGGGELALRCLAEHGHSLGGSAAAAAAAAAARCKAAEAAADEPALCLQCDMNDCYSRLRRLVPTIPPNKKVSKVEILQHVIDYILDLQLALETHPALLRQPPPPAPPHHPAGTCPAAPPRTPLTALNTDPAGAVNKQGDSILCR
Calls only; i = inactive; + = active, no number. These rows are one share of the data; count on the stated rates, not on these rows.

compound	ID4 binder
CN=C(C)/C(C(=O)OC)=C(/O)c1ccc(Cl)cc1Cl	i
C[C@@H]1CN([C@H](C)CO)C(=O)c2cc(Br)cnc2O[C@H]1CN(C)C(=O)C1CCC1	i
COc1cccc(-c2cnc3c(c2)C(=O)N([C@@H](C)CO)C[C@H](C)[C@@H](CN(C)C(=O)Nc2ccccc2F)O3)c1	i
Cc1c(NC(=O)CSc2nc3c(c(C(F)(F)F)n2)CCc2ccccc2-3)c(=O)n(-c2ccccc2)n1C	i
COc1ccc(NC(=O)CN(c2ccccc2Br)S(C)(=O)=O)cc1OC	i
Cn1cnc(S(=O)(=O)N[C@@H]2C=C[C@@H](CC(=O)NCC3CCCCC3)O[C@@H]2CO)c1	i
O=C(NCc1ccccc1)C1Sc2nnc(-c3ccccc3)n2NC1c1ccc(F)cc1 (configuration not stated)	i
CCn1c(SCC(=O)Nc2cccc(C(F)(F)F)c2)nnc1-c1ccc(C)cc1	i
O=C(C[C@@H]1C=C[C@H](NC(=O)C2CC2)[C@H](CO)O1)NC1CCC1	i
C[C@H](CO)N1C[C@H](C)[C@@H](CN(C)Cc2ccc(-c3ccccc3)cc2)Oc2cc(C#CC(C)(C)O)ccc2S1(=O)=O	i
C[C@@H]1CN([C@@H](C)CO)S(=O)(=O)c2ccc(C3=CCCC3)cc2O[C@@H]1CN(C)C(=O)Nc1ccc2c(c1)OCO2	i
CS(=O)(=O)N(CC(=O)Nc1ccc(Br)cc1F)c1ccc(F)c(Cl)c1	i
O=C(Nc1sc2c(c1C(=O)NCc1cccnc1)CCCC2)c1ccc([N+](=O)[O-])cc1	i
COc1ccc(-c2ccc3c(c2)O[C@@H](CN(C)C(C)=O)[C@@H](C)CN([C@H](C)CO)S3(=O)=O)cc1	i
CC(C)(C)C1CCc2c(sc(NC(=O)CN3CCOCC3)c2C#N)C1 (configuration not stated)	i
CCC1(C)Cc2c(sc3nc(SC)nc(SCC(=O)OC)c23)CO1 (configuration not stated)	i
Cn1c(SCC(=O)Nc2cc(Cl)c(Cl)cc2Cl)nnc1-c1ccccc1	i
CCCC#Cc1cnc2c(c1)C(=O)N([C@@H](C)CO)C[C@@H](C)[C@H](CN(C)C(=O)c1ccccc1)O2	i
CCOc1ccc(Cl)cc1S(=O)(=O)n1cnc2cc(C)c(C)cc21	i
CCCc1cn(CC[C@@H]2CC[C@H](NC(=O)C3CCC3)[C@@H](CO)O2)nn1	i
Cc1ccc2c(c1)c1c(n2CC(O)CN2CCOCC2)C(=O)CCC1 (configuration not stated)	i
O=C(c1cc(C2CC2)[nH]n1)n1ccnc1	i
COC(=O)c1ccc(NC(=O)CSc2nnc(-c3ccc(Br)cc3)o2)cc1	i
Cc1ccc(OCC(=O)Nc2cccc(-c3nc4cc(Cl)ccc4o3)c2C)cc1C	i
C/C=C/c1ccc([C@H]2[C@@H](CO)N(S(=O)(=O)c3cccc(F)c3)[C@H]2C#N)cc1	i
COc1ccc(-c2cnc3c(c2)C(=O)N([C@@H](C)CO)C[C@H](C)[C@H](CN(C)C(=O)Cc2cccnc2)O3)cc1	i
COc1ccc(NC(=O)c2oc3ccccc3c2NC(=O)Cc2coc3cc(C)cc(C)c23)cc1	i
Cc1ccc(-c2nc3cc(Cl)cc(Cl)c3o2)cc1NC(=O)COc1ccccc1	i
COc1cc(C2NC(=S)NC(c3ccccc3)=C2C(=O)c2ccccc2)cc(I)c1OCCO (configuration not stated)	i
O=C(O)CNS(=O)(=O)c1ccc(C(=O)Nc2ccccc2)cc1	i

(next part)
compound	ID4 binder
O=C(C[C@@H]1C[C@H]2c3cc(NC(=O)c4ccc5c(c4)OCO5)ccc3O[C@H]2[C@H](CO)O1)NCc1cc(F)ccc1F	i
CNc1nc(NC(C)C)nc(Oc2ccc(=O)[nH]n2)n1	i
C[C@@H]1CN([C@@H](C)CO)C(=O)c2cc(Br)cnc2O[C@H]1CN(C)S(=O)(=O)c1ccccc1	i
COc1ccc(-n2nnnc2SCC(=O)Nc2cc(C)c(Cl)cc2OC)cc1	i
N#C[C@H]1[C@@H](c2ccccc2)[C@@H](CO)N1C(=O)c1cc(Cl)cc(Cl)c1	i
CC(C)CC#Cc1ccc2c(c1)O[C@H](CN(C)Cc1ccc3c(c1)OCO3)[C@@H](C)CN([C@@H](C)CO)S2(=O)=O	i
COc1ccc(C(=O)NCc2occc2C(=O)O)cc1	i
COC(=O)c1cccc(NC(=O)CN(c2ccc(F)c(Cl)c2)S(C)(=O)=O)c1C	i
Cc1ccc(NC(=O)COc2ccccc2)c(NC(=O)c2ccco2)c1	i
Cc1ccc(OCC(=O)Nc2ccc3oc(-c4cccnc4)nc3c2)c(C)c1	i
CS(=O)(=O)N(CC(=O)Nc1ccc(I)cc1)c1ccc(Cl)cc1Cl	i
C=CC[C@@]12N=C(c3ccc(OCCCO)cc3)O[C@@H]1c1ccccc1CN(CCS(=O)(=O)c1ccccc1)C2=O	i
COCCNC(=O)C[C@H]1C[C@@H]2c3cc(NC(=O)CN(C)C)ccc3O[C@@H]2[C@@H](CO)O1	i
COc1ccc(CN2C(=O)C(O)(CC(=O)c3ccc(Cl)s3)c3ccccc32)cc1OC (configuration not stated)	i
C[C@@H]1CN([C@H](C)CO)C(=O)c2cc(-c3cccc(C(=O)N(C)C)c3)cnc2O[C@H]1CN(C)C	+
CO[C@H](CN(C)S(=O)(=O)c1ccc(F)cc1)[C@@H](C)CN(C(=O)Nc1ccccc1F)[C@H](C)CO	i
CC(=O)Nc1ccc(NC(=O)CN(c2cccc(Br)c2)S(C)(=O)=O)cc1	i
CCn1c(SCC(=O)Nc2sc3c(c2C#N)CCCC3)nnc1-c1cccc(Cl)c1	i
C[C@H](CO)N1C[C@H](C)[C@H](CN(C)S(C)(=O)=O)Oc2cc(-c3ccccc3)ccc2S1(=O)=O	i
C[C@H]1CN([C@@H](C)CO)C(=O)c2cc(-c3cccnc3)cnc2O[C@H]1CN(C)Cc1ccccc1	i
NC(=O)C1CCN(C(=O)CSc2nc3ccccc3o2)CC1	i
O=C(Nc1ccccc1)c1cc([N+](=O)[O-])ccc1NCc1cccnc1	i
O=C(CSc1nc(O)cc(=O)n1-c1ccccc1)Nc1ccccc1Cl	i
C[C@@H]1CN([C@H](C)CO)C(=O)Cc2cc(NC(=O)C3CCCCC3)ccc2O[C@@H]1CN(C)C	i
Cc1ccc(N(C(C)C(=O)Nc2cccc(F)c2)S(C)(=O)=O)cc1 (configuration not stated)	i
C[C@H]1CN([C@@H](C)CO)S(=O)(=O)c2ccc(-c3ccccc3F)cc2O[C@@H]1CN(C)C	i
O=C(N[C@@H]1CC[C@@H](CC(=O)N2CCc3ccccc3C2)O[C@@H]1CO)C1CCOCC1	i
Fc1ccc(Cn2ccnc2-c2ccc(C(F)(F)F)cc2)cc1	i
CCCn1nnc(NC(=O)COc2ccccc2Cl)n1	i
CC(C)N(Cc1nc(-c2ccc(Cl)cc2)no1)S(=O)(=O)c1ccc(F)cc1	i

Shown with each value named: entries from further up.
COC(=O)c1cccc(NC(=O)CN(c2ccc(F)c(Cl)c2)S(C)(=O)=O)c1C
- ID4 binder: i

Cc1ccc(NC(=O)COc2ccccc2)c(NC(=O)c2ccco2)c1
- ID4 binder: i

Cc1ccc(OCC(=O)Nc2ccc3oc(-c4cccnc4)nc3c2)c(C)c1
- ID4 binder: i

CS(=O)(=O)N(CC(=O)Nc1ccc(I)cc1)c1ccc(Cl)cc1Cl
- ID4 binder: i

Carrying on:
compound	ID4 binder
CCC(=O)N(C)C[C@@H]1Oc2ncc(-c3ccccc3C)cc2C(=O)N([C@H](C)CO)C[C@@H]1C	i
c1coc(-c2cn3ccc4ccccc4c3n2)c1	i
COc1ccc(-n2c(SCC(N)=O)nnc2-c2cccs2)cc1	i
CSc1cccc(NC(=O)Cn2cc(Br)c([N+](=O)[O-])n2)c1	i
O=C(/C=C/c1ccc(O)c(O)c1)O[C@@H]1C[C@](O)(C(=O)O)C[C@@H](O)[C@H]1O	i
COc1cccc(N(CC(=O)Nc2ccc(C)c(Cl)c2)S(C)(=O)=O)c1	i
CN(CC(=O)Nc1ccccc1C(F)(F)F)S(=O)(=O)c1ccc(F)cc1	i
CS(=O)(=O)N(CC(=O)Nc1ccccc1Sc1ccccc1)c1cccc(Br)c1	i
C[C@H]1CN([C@@H](C)CO)S(=O)(=O)c2ccc(C#CCN(C)C)cc2O[C@H]1CN(C)C	i
COC(=O)c1ccccc1NC(=O)Cn1cncc1-c1ccc([N+](=O)[O-])cc1	i
Cc1cccc(-c2nnc(SCC(=O)Nc3c(Cl)cc(Cl)cc3Cl)o2)c1	i
CCOC(=O)Cc1[nH]nc2c1C(C(C)C)C(C#N)=C(N)O2 (configuration not stated)	i
COC(=O)c1ccccc1NC(=O)CNC(=O)c1ccccc1F	i
CCCC#Cc1cnc2c(c1)C(=O)N([C@H](C)CO)C[C@@H](C)[C@H](CN(C)C)O2	i
Cc1ccccc1CN(C)C[C@H]1OCc2cnnn2CCCC(=O)N([C@@H](C)CO)C[C@@H]1C	i
Cc1ccc(C2CC(=O)c3cnc(NCCN4CCOCC4)nc3C2)cc1 (configuration not stated)	i
CO[C@H](CN(C)C(=O)c1cc(Cl)cc(Cl)c1)[C@@H](C)CN(C(=O)Nc1ccc(F)cc1)[C@@H](C)CO	i
COC(=O)Cc1cc(=O)n(-c2nc3ccccc3[nH]2)[nH]1	i
CC(=O)N(C)C[C@@H]1Oc2ncc(-c3ccccc3F)cc2C(=O)N([C@@H](C)CO)C[C@@H]1C	i
COc1cccc2cc(-c3nnc(SCC(=O)Nc4ccc5ccccc5c4)n3C)oc12	i
CCC(Sc1nnc(-c2ccncc2)n1C)C(=O)Nc1c(C)cccc1C (configuration not stated)	i
CN(C)c1ccc2c(c1)[C@@H]1C[C@@H](CC(=O)N3CCc4ccccc4C3)O[C@@H](CO)[C@@H]1O2	i
O=C1Nc2ccc(S(=O)(=O)NCC3CCCO3)c3cccc1c23 (configuration not stated)	i
N#C[C@H]1[C@@H](c2ccc(C#Cc3ccccc3F)cc2)[C@@H](CO)N1C(=O)C1CCC1	i
NC(=O)c1c(NC(=O)CCSc2nc(-c3ccco3)cc(C(F)(F)F)n2)sc2c1CCC2	i
O=C(CSc1ncccn1)Nc1ccc(I)cc1	i
C[C@H](CO)N1C[C@H](C)[C@@H](CN(C)C(=O)c2ccccc2)Oc2ncc(C3=CCCCC3)cc2C1=O	i
O=C(C[C@H]1CC[C@@H](NC(=O)C2CCC2)[C@@H](CO)O1)NC1CCCCC1	i
CNC[C@@H]1Oc2ncc(-c3ccccc3C)cc2C(=O)N([C@H](C)CO)C[C@H]1C	i
COCCOC(=O)N1C(=O)[C@@]2(c3cc(C#CCCO)ccc31)[C@H](c1ccc(O)cc1)N1[C@H](c3ccccc3)[C@H](c3ccccc3)OC(=O)[C@H]1[C@@H]2C(N)=O	i

Carrying on:
compound	ID4 binder
CO[C@H](CN(C)S(=O)(=O)c1ccc(C)cc1)[C@H](C)CN(Cc1ccccc1Cl)[C@H](C)CO	i
O=C(Nc1ccc2c(c1)[C@@H]1C[C@H](CC(=O)N3CCOCC3)O[C@@H](CO)[C@@H]1O2)c1ccc2c(c1)OCO2	i
c1ccc2c(c1)n(CCN1CCOCC1)c1nc(C34CC5CC(CC(C5)C3)C4)cn21	i
O=C(N[C@H]1C=C[C@H](CC(=O)N2CCN(c3ccccc3)CC2)O[C@H]1CO)c1ccccc1	i
O=C(Nc1scc(-c2ccccc2)c1C(=O)NCc1ccco1)c1ccccc1	i
O=C(Cc1ccccc1)N[C@@H]1CC[C@H](CC(=O)N2CCCCC2)O[C@H]1CO	i
O=C(C[C@H]1C=C[C@H](NC(=O)c2ccc(F)cc2)[C@@H](CO)O1)NCCc1ccccc1	i
CCc1ccc(O)c(NC(=S)NC(=O)COc2ccc(C)cc2C)c1	i
CS(=O)(=O)N(CC(=O)Nc1cccc(Cl)c1)c1ccc(Br)cc1	i
CC(Oc1ccc(Cl)cc1Cl)C(=O)Nc1nnn(C)n1 (configuration not stated)	i
COc1ccccc1NC(=O)C1=C(C)Nc2nc(-c3ccccc3)nn2C1c1ccccn1 (configuration not stated)	i
C[C@@H]1CN([C@@H](C)CO)C(=O)c2cc(C#CCN(C)C)cnc2O[C@H]1CN(C)Cc1ccncc1	i
COc1ccc(N(CC(=O)Nc2ccc(I)cc2)S(C)(=O)=O)cc1Cl	i
COC(=O)c1ccc(-n2c(CCC(=O)O)ccc2-c2ccc(Cl)cc2)cc1	i
COC(=O)c1ccccc1NC(=O)C1CC(c2ccc(Cl)c(Cl)c2)=NO1 (configuration not stated)	i
O=C(Nc1sc2c(c1C(=O)NCc1ccco1)CCCC2)c1ccc(Br)cc1	i
CS(=O)(=O)N(CC(=O)Nc1ccccc1C(=O)O)c1cccc(Cl)c1	i
C[C@H]1CN([C@@H](C)CO)C(=O)c2cc(C3=CCCC3)cnc2O[C@@H]1CN(C)C(=O)CN(C)C	i

Grouped by structure: the compounds so far with a COOH group
compound	ID4 binder
O=C(O)CNS(=O)(=O)c1ccc(C(=O)Nc2ccccc2)cc1	i
COc1ccc(C(=O)NCc2occc2C(=O)O)cc1	i
O=C(/C=C/c1ccc(O)c(O)c1)O[C@@H]1C[C@](O)(C(=O)O)C[C@@H](O)[C@H]1O	i
COC(=O)c1ccc(-n2c(CCC(=O)O)ccc2-c2ccc(Cl)cc2)cc1	i
CS(=O)(=O)N(CC(=O)Nc1ccccc1C(=O)O)c1cccc(Cl)c1	i

Source: PubChem BioAssay
